Bead autofluor = compound fluorescence in toxin protease inhibitor counterscreen. compound autofluorescence counterscreen, microsphere flow cytometry; active compounds read high. fluorescence intensity (no concentration beside the values). 360,000 compounds, 3.1% hits;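 active means at least 3 SD above the mean of all compounds, about 16000 in these data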;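 further: 100 nL of 1 mM stock went into each well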
* marks the source's active call; other numbers are inactive results.

SMILES | Bead autofluor
CC1=C(C(=O)N2CCCCCC2)CC(CC(=O)NCCc2ccccn2)C(=O)N1CCC1=CCCCC1 (stereo unspecified) | 5304
CCOC(=O)c1csc(-c2ccc(COC(=O)c3ccccc3)o2)n1 | 5821
CC1=C(C(=O)N2CCCCCC2)CC(CC(=O)NCCCN(C)C)C(=O)N1CCCN1CCCC1=O (stereo unspecified) | 5653
COc1cc(OC)c(OC)cc1C=Cc1ccc2ccccc2n1 | 2940
CCCCNC(=O)c1[nH]c(=O)cnc1-c1ccccc1 | 5263
O=C(NCc1ccc(Cl)c(Cl)c1)c1cc(C2CCCCN2C(=O)c2ccccn2)on1 (stereo unspecified) | 2840
CCc1cc2c(SCC(=O)N3CCN(C(=O)c4cccs4)CC3)ncnc2s1 | 3846
Cc1ccccc1-c1cnc(C(O)c2ccc(Cl)cc2C)[nH]1 (stereo unspecified) | 3913
CC(Oc1ccc(Cl)cc1)C(=O)Nc1cccc(S(=O)(=O)N2CCCC2)c1 (stereo unspecified) | 3697
C[n+]1cccc(NC(=O)c2ccccc2)c1 | 5516
Cc1c(CC(=O)NCC(=O)NCC(=O)N[C@@H](Cc2ccccc2)C(=O)O)c(=O)oc2c(C)c(O)ccc12 | 5706
CC1=CC(=O)Nc2ncccc2O1 | 3074
O=S(=O)(O)Sc1ccccc1 | 2895
CCOC(=O)[C@]12CCC=C1N(Cc1cccc3ccccc13)C(=O)[C@H](CC(=O)N1CCSCC1)C2 | 6026
CCCCN1C[C@H](C)[C@@H](CC(=O)Nc2ccc(OC)cc2)C1=O | 3897
COc1ccc(NC(=O)c2cc(C3CCCCN3C(=O)OCc3ccccc3)on2)c(C)c1 (stereo unspecified) | 3826
O=C(NNC(=S)Nc1cccc(C(F)(F)F)c1)c1ccncc1 | 2708
O=C(CCCN1C(=O)c2cccc3cccc(c23)C1=O)OCC(=O)N1CCCCC1 | 3877
O=C(NC(c1ccc(Cl)cc1)c1cnccn1)C1CCN(Cc2ccc(Cl)cc2)CC1 (stereo unspecified) | 4623
COc1ccc(CC(N)c2csc(NC(=O)c3ccc(F)cc3)n2)cc1 (stereo unspecified) | 4112
C[C@@H]1CN([C@@H](C)CO)C(=O)CCCn2nncc2CO[C@@H]1CN(C)C(=O)c1ccc(N2CCN(C)CC2)cc1 | 3735
Cc1cc(Br)cn2c(Cc3ccsc3)c(-c3ccc(F)cc3)nc12 | 5694
CC1(C(=O)Nc2cccc(C(F)(F)F)c2)Cc2c(-c3ccccc3)ccnc2O1 (stereo unspecified) | 3715
O=C(Nc1ccc(C(O)c2ccccc2)cc1)[C@H]1C[C@H](O)[C@@H](CO)O1 (stereo partly specified) | 3839

Ordered by number of heavy atoms (high to low): some entries from above
SMILES | Bead autofluor
C[C@@H]1CN([C@@H](C)CO)C(=O)CCCn2nncc2CO[C@@H]1CN(C)C(=O)c1ccc(N2CCN(C)CC2)cc1 | 3735
O=C(NC(c1ccc(Cl)cc1)c1cnccn1)C1CCN(Cc2ccc(Cl)cc2)CC1 (stereo unspecified) | 4623
CC1(C(=O)Nc2cccc(C(F)(F)F)c2)Cc2c(-c3ccccc3)ccnc2O1 (stereo unspecified) | 3715

(further entries)
SMILES | Bead autofluor
CC1(Cc2ccccc2Cl)C(=O)Nc2ccc(OC(F)(F)F)cc21 (stereo unspecified) | 3643
C[C@H](CO)N1C[C@H](C)[C@H](CN(C)Cc2cccc(O)c2)OCc2ccccc2-c2c(n(C)c3ccccc23)C1=O | 3567
CC1(C(=O)Nc2cnc3ccccc3c2)CCN1CCc1ccccc1 (stereo unspecified) | 2974
CCCc1c(-c2ccc(F)cc2)ncn1Cc1ccccc1OC | 5713
COc1ccc(CN2C(=O)C(CC(=O)NCCCCc3ccccc3)CC(C(=O)N(C)C)=C2C)cc1 (stereo unspecified) | 3802
CC(C)(C)n1nnnc1C(c1ccnc2ccccc12)N1CCN(C/C=C/c2ccccc2)CC1 (stereo unspecified) | 5710
NC(=O)c1ccc(NCCc2cccs2)cc1 | 7005
COCCCN1C(=O)C(CC(=O)NCCN2CCOCC2)CC(C(=O)N2CCCCCC2)=C1C (stereo unspecified) | 5857
CCN(C(=O)Nc1cccc2ccccc12)c1ccccc1 | 3873
COc1cc(CN2CCC(C(=O)NC(c3ccc(-c4ccccc4)cc3)c3cnccn3)CC2)cc(OC)c1 (stereo unspecified) | 5682
COc1cc2c3c(c1OC)C(=O)CC3CCCC2 (stereo unspecified) | 5733
CCOC1CCCc2oc(-c3ccc(N(C)C)cc3)c(C(=O)OC)c21 (stereo unspecified) | 5925
CCOC(=O)C1(C)CCCN1C(=O)c1ccc(F)c(Cl)c1 (stereo unspecified) | 3903
CCOC(=O)C1(C)CCN1C(=O)c1ccc(Cl)cc1Cl (stereo unspecified) | 3981
COC(=O)[C@@]1(Cc2ccc(F)cc2)[C@H]2c3cc(C(=O)N4CCCC4)n(CCSCCO)c3C[C@H]2CN1C(=O)c1ccccc1 | 4160
CCOC(=O)C1=C(COC(=O)Cc2ccccc2[N+](=O)[O-])NC(=O)NC1C (stereo unspecified) | 2920

Taken from the results shown, 5 compounds:
SMILES | Bead autofluor
COc1cc(CN2CCC(C(=O)NC(c3ccc(-c4ccccc4)cc3)c3cnccn3)CC2)cc(OC)c1 (stereo unspecified) | 5682
COc1cc2c3c(c1OC)C(=O)CC3CCCC2 (stereo unspecified) | 5733
CCOC1CCCc2oc(-c3ccc(N(C)C)cc3)c(C(=O)OC)c21 (stereo unspecified) | 5925
CCOC(=O)C1(C)CCCN1C(=O)c1ccc(F)c(Cl)c1 (stereo unspecified) | 3903
CCOC(=O)C1(C)CCN1C(=O)c1ccc(Cl)cc1Cl (stereo unspecified) | 3981

Following part:
SMILES | Bead autofluor
N#Cc1ccc(OCC(=O)OCC(=O)N2CCc3ccccc32)cc1 | 2788
CCCCn1nnnc1C(c1ccccc1)N1CCN(c2c(Cl)cncc2Cl)CC1 (stereo unspecified) | 6085
CC1(C(=O)NCc2ccc(Cl)cc2)CCN1C(=O)Cc1cccs1 (stereo unspecified) | 3011
Cc1cccc(NC(=O)C(C)OC(=O)CNC(=O)C2CCCCC2)c1 (stereo unspecified) | 3368
C[C@H]1CN([C@@H](C)CO)C(=O)CCCn2nncc2CO[C@@H]1CN(C)Cc1ccc(C(=O)O)cc1 | 2928
Cn1c(=O)oc2cc(S(=O)(=O)Nc3ccc(C(=O)O)cc3)ccc21 | 3414
COc1cc(C)ccc1OCc1cc(C(=O)NC2CCOCC2)no1 | 3572
COc1ccc(-c2oc3c(c2C(=O)OCCCO)C(OCCO)CCC3)cc1 (stereo unspecified) | 5632
COc1cc(C(=O)NCCNc2nc3c(C)cccc3cc2C#N)cc(OC)c1OC | 3324
Cc1ccc(C(=O)NCC(=O)OCCCn2c(=O)[nH]c3ccccc32)cc1C | 3822
Nc1ncnc2c1ncn2[C@@H]1O[C@H](CCC(=O)NCc2ccccc2)[C@@H](O)[C@H]1O | 6049
COc1ccc(OC)c(S(=O)(=O)NC(=O)C2(C)CCN2C(=O)c2ccco2)c1 (stereo unspecified) | 3899
CC(C)C[C@@H]1Cc2[nH]c(=S)[nH]c(=O)c2[C@H](CCc2ccccc2)O1 | 4542
CCCCN1C(=O)C(CC(=O)NCCCN(C)C)CC(C(=O)N2CCCCCC2)=C1C (stereo unspecified) | 5389
CC1(C(=O)NCC2CC2)Cc2c(-c3cccc(C(F)(F)F)c3)ccnc2O1 (stereo unspecified) | 4237
CSc1ccc(OC2(C)CCN(Cc3ccc(OC(F)(F)F)cc3)C2)cc1 (stereo unspecified) | 3773
Cc1cccc(NC(=O)c2ncn3c2C(=O)N(C)CC3)c1 | 3761
CCCNC(=O)c1cc(C2CCCCN2S(C)(=O)=O)on1 (stereo unspecified) | 3530
CC(=O)N1CCN(S(=O)(=O)c2cccc(C(=O)OCC(=O)NCc3ccccc3Cl)c2)CC1 | 3845
COc1cc(OC)nc(C(NC(=O)C2CCN(Cc3ccc(Oc4ccccc4)cc3)CC2)c2ccc(F)cc2)n1 (stereo unspecified) | 3888
COc1ccc(NC(=O)C2(C)CCN2CCOc2ccccc2)cc1OC (stereo unspecified) | 2928
CC(C)n1c(=O)nc(-c2ccccc2)c2cc3c(cc21)OCO3 | 4016
O=S1(=O)CC(N2CCCCC2)CN1Cc1ccccc1 (stereo unspecified) | 6299
Cc1cn([C@H]2C[C@H](O)[C@@H](CNCc3cc(Cl)ccc3OCc3ccc(Cl)cc3)O2)c(=O)[nH]c1=O | 3586
O=C(Nc1ccc2c(c1)OCO2)c1csc([C@H]2C[C@H](O)[C@@H](CO)O2)n1 | 3113
COc1ccc(-n2nnnc2C(c2cc3ccccc3o2)N2CCC(n3c(=O)[nH]c4ccccc43)CC2)cc1 (stereo unspecified) | 4557
Cn1nnc2cc(NC(=O)Nc3ccccc3F)ccc21 | 3068
O=C1C(=Cc2cn(-c3ccccc3)nc2-c2ccc(OCc3ccccc3)cc2)SC(=S)N1CCS(=O)(=O)O | 3678
C[C@@H]1CN([C@H](C)CO)C(=O)c2cc(Br)cnc2O[C@H]1CN(C)C(=O)Cc1ccncc1 | 4300
COc1cc2oc(=O)cc(CN3CCN(c4ccc(Cl)c(Cl)c4)CC3)c2cc1Cl | 5981
CCCCNC(=O)C1(C)CCCCN1C(=O)c1c(F)ccc(C)c1F (stereo unspecified) | 3675
Cc1ccc2nc(-c3ccc(Cl)cc3)c(Cc3cccc(Cl)c3)n2c1 | 6063
COC(=O)[C@@H]1N=C(c2ccc(OC)cc2)O[C@]12C(=O)N(C)c1ccc(Cl)cc12 | 4491
CC1=C(C(=O)N(C)C)CC(CC(=O)NC(c2ccccc2)c2ccccc2)C(=O)N1Cc1ccccc1 (stereo unspecified) | 4034
CCCCC(c1nc2ccccc2[nH]1)n1c(-c2ccccc2)nc2cc(C)c(C)cc21 (stereo unspecified) | 6080
CCC(=O)c1ccc(OCC(=O)OCc2csc(CC(=O)Nc3ccccc3C)n2)cc1 | 3067
OCCN1CCN(CCCN2c3ccccc3CCc3ccccc32)CC1 | 3570
CC1(Cc2ccc(F)cc2)C(=O)Nc2ccc(S(=O)(=O)NC3CCCCC3)cc21 (stereo unspecified) | 3830
Cc1ccccc1NS(=O)(=O)c1ccc2c(c1)CCC(=O)N2 | 3863
CC(C)=C[C@H]1C[C@H](C)[C@H]2CC[C@H](C)c3c(O[C@@H]4O[C@@H](C)[C@@H](O)[C@@H](O)[C@@H]4O)c(O)c(C)c1c32 | 5101
CCS(=O)(=O)N1Cc2cc(C(=O)NCCOC)nc(-c3cccc(-c4ccncc4)c3)c2[C@@H]1CCO | 5467
Cc1nc(C(F)(F)F)ccc1C(=O)N1CCC1(C)C(=O)NCc1ccc(Cl)cc1 (stereo unspecified) | 3931
CCCC(=O)N1CCCC1(C)C(=O)Nc1ccc2cn[nH]c2c1 (stereo unspecified) | 2960
COc1ccc([C@H]2C[C@@H](O)[C@H](n3cc(COC(=O)c4ccccc4)nn3)CN2C(=O)c2cccs2)cc1 | 4038
Cc1ccc(S(=O)(=O)N2C[C@H]3C(=O)C[C@@H](c4ccccc4)N(S(C)(=O)=O)[C@H]3C[C@H]2c2ccccc2)cc1 | 5493
CC1(C(=O)NS(=O)(=O)c2cccc(C#N)c2)CCN1C(=O)C1(c2ccccc2)CC1 (stereo unspecified) | 5094
CC(=O)Nc1cc(-c2ccc(C(=O)NC3CC3)cc2)cn2c(-c3ccc(F)c(Cl)c3)cnc12 | 3237
c1ccc(CNc2nc(NCCOc3ccccc3)c3sccc3n2)cc1 | 3798
CC(C)=CCC[C@H](C)C[C@@H]1Cc2[nH]c(=S)[nH]c(=O)c2[C@@H](c2ccc(F)cc2)O1 | 5657
Cc1ccc(S(=O)(=O)N2CCCOC2CNC(=O)C(=O)NCCc2ccco2)cc1 (stereo unspecified) | 3062
CC1C(=O)N(Cc2cn(Cc3ccco3)nn2)CCS(=O)(=O)N1Cc1ccc(-c2cccc(N(C)C)c2)cc1 (stereo unspecified) | 2913
CNc1ccc(-c2ccccc2OC)cn1 | 2978
Cc1cc(C)cc(Cn2c3ccc(NC(=S)NCc4ccccc4F)cc3c(=O)n2C)c1 | 4204
COc1ccc(C(=O)N2CCC(C)(C(=O)NS(=O)(=O)C3CC3)C2)cc1F (stereo unspecified) | 3856
COCc1cccc(-c2csc(C(NC(C)=O)c3cccc(F)c3)n2)c1 (stereo unspecified) | 3089
Cc1ccc(CN2CCCC2(C)C(=O)NC(C)C)cc1 (stereo unspecified) | 3652

Next part:
SMILES | Bead autofluor
C#CCN(C[C@@H]1[C@@H](OC(=O)NCc2ccccc2F)[C@@H](OC(=O)NCc2ccccc2F)Cn2c(=O)ccc(=O)n21)S(=O)(=O)c1ccc(C)cc1 | 2963
Cc1ccc(OCC(=O)N2CCc3ccccc3C2)cc1C | 2978
CC1(Oc2cccc(F)c2)CCN(Cc2ccc(-c3ccccn3)cc2)C1 (stereo unspecified) | 3718
CC(C)CC(N)c1csc(NC(=O)Nc2ccccc2C(C)(C)C)n1 (stereo unspecified) | 3656
COc1ccccc1-c1ccc2c(c1)C(C)(Cc1ccc(OC(F)(F)F)cc1)C(=O)N2 (stereo unspecified) | 3491
Brc1ccc2nc(-c3ccccc3)c(Cc3ccsc3)n2c1 | 6078
O=C(CCc1c[nH]c2ccccc12)N1CCN(S(=O)(=O)c2ccc([N+](=O)[O-])cc2)CC1 | 3611
CC(C)(C)n1nnnc1C(C1CC1)N1CCC(n2c(=O)[nH]c3ccccc32)CC1 (stereo unspecified) | 5565
Cc1ccc(F)c(S(=O)(=O)NC(=O)C2(C)CCN2C(=O)Cc2cccc3ccccc23)c1 (stereo unspecified) | 3902
Cc1ccc([C@H]2C[C@H](n3cc(-c4ccc(F)cc4)nn3)[C@@H](O)CN2C(=O)c2cccs2)cc1 | 2888
CC1=C(C(=O)N(C(C)C)C(C)C)CC(CC(=O)NCCc2ccccn2)C(=O)N1CCC1=CCCCC1 (stereo unspecified) | 5735
CSc1ccc(C(O)c2ncc(-c3ccccc3Cl)[nH]2)cc1 (stereo unspecified) | 3065
CNc1nc(Nc2ccc(C)cc2C)c2sccc2n1 | 2889

A portion of the library; the hit share may differ from the screen's.
